A488 fluor: qHTS Assay for Spectroscopic Profiling in A488 Spectral Region | 0.1% of 59,000 active | max dye equivalency, M | compound autofluorescence, A488 spectral region, dye equivalency; active compounds read high | AID 591, 2007; active = above 10 nM dye equivalent; inconclusive = 1 to 10 nM; inactive = 1 nM or less; about half of its hits are not listed in these tables;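 also: highest value over a series up to 38 µM; compound alone in buffer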
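Read-out: relative fluorescence at 480/540 nm, expressed as Alexa 488 dye-equivalent concentration from a six-point A488 standard included per plate. Conditions: 100 mM Tris, pH 8.0; 15 min incubation, room temperature.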
AID923: qHTS Assay for Allosteric/Competitive Inhibitors of Caspase-1: Spectroscopic Profiling in AFC Spectral Region | AID 923, 2007 | Potency, µM (series often up to 57.5 µM), for the others: at the highest dose fluorescence increase, hits mostly activators | 1.1% of 75,000 active | compound fluorescence, AFC spectral region (405/520 nm); almost no hit is shown here; active = well fitted activation curve with a large enough effect; inconclusive = small, poorly fitted or top-dose-only effect;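 also: potency is read from the fitted curve at half-maximal effect; 0% is about no effect; scaled to a free AFC standard on each plate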
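Compound autofluorescence profiled at 405 nm ex/520 nm em during kinetic caspase 1 run (50 nM enzyme, 5 uM Ac-WEHD-AFC, HEPES pH 7.5, 10 mM DTT). Titration up to 57 uM; baseline from regression intercept, normalized to AFC standard curve.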
A647 autofl: qHTS Assay for Spectroscopic Profiling in A647 Spectral Region; Compound fluorescence, A647 channel (570/671 nm), Tris buffer; max dye-equivalent concentration, M; 59,000 tested, under 10 active; AID 592, 2007; active means above 1 µM dye equivalent; inconclusive means 0.1 to 1 µM; inactive means 0.1 µM or less;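 also: values scaled relative to a standard on each plate; highest value over a series up to 38 µM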
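Spectral profiling of library compounds in pH 8.0 Tris: 15 min room-temperature incubation, single ex/em pair (570/671 nm), response normalized to Alexa 647 equivalents.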
Resorufin autofl: qHTS Assay for Spectroscopic Profiling in Resorufin Spectral Region; Compound fluorescence, resorufin region 547/598 nm, buffer; active compounds read high; max dye-equivalent concentration, M; 0.04% of 59,000 active; active = above 10 nM dye equivalent; inconclusive = 1 to 10 nM; inactive = 1 nM or less; a few of its hits are not listed in these tables; also: highest value over a series up to 38 µM
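Dye-equivalent concentration values derive from comparing each well's 547/598 nm fluorescence against resorufin standards included on every plate. Incubation was 15 min at room temperature in 100 mM Tris, pH 8.0.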
TSHR ag: qHTS Assay for Agonists of the Thyroid Stimulating Hormone Receptor; Thyrotropin receptor (Homo sapiens), P16473; HEK293-CNG-TSHR cells (CNG channel as cAMP sensor), membrane potential dye, cAMP; Potency, µM (titrated, usually from 57.1 µM), inactives show at the top dose activation, hits mostly activators; 0.48% of 73,000 active; AID 926, 2007; active = well fitted activation curve of enough size with the parental cells flat; inconclusive = any curve in the parental cells; inactive = parental cells flat and receptor cells flat or falling; also: potency is read from the fitted curve at half-maximal effect; % of control where 0% means no effect; weak receptor curves with flat parental cells got no call and are not listed
Target sequence (P16473 whole entry, looked up): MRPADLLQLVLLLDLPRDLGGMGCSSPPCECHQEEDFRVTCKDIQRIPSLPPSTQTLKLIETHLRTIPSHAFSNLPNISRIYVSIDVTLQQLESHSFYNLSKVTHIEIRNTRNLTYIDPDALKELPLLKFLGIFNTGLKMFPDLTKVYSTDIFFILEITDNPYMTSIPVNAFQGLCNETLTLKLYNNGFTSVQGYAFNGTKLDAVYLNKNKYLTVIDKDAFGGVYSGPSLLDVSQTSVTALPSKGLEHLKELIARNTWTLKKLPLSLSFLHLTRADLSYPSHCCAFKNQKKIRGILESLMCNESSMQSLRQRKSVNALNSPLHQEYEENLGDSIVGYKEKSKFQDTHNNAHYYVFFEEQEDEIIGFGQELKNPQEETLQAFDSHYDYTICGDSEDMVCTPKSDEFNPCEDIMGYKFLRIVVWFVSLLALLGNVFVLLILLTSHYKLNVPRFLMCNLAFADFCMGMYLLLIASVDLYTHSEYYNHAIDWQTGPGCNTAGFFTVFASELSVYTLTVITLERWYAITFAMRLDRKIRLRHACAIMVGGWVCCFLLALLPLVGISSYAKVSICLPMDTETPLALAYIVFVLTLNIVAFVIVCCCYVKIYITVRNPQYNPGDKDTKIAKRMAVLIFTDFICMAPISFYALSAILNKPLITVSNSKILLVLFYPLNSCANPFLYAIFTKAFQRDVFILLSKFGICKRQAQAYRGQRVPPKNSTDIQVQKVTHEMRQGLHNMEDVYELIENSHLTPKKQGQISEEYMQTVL
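HEK 293 cells stably expressing TSHR and a modified CNG channel, with CNG-only parental cells as counterscreen, were preloaded 60 min at room temperature with membrane potential dye containing 100 uM RO 20-1724. Compound exposure was 30 min, and depolarization was read as fluorescence at 590 nm.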
Starred values were filed as active, the others as inactive; i = inactive; ? = inconclusive; nt = no result given; [ ] = remark or other dose. Some of the compounds tested; count on the stated rates, not on these rows.

Results follow in this order: A488 fluor, AID923, A647 autofl, Resorufin autofl, TSHR ag
[1] Cc1cc(C)n2ncc(C(=O)NCc3cccnc3)c2n1
→ i, 0.0%, 2.65e-08, i, 1.0%
[2] COc1cc(C(=O)Nc2ccc3c(c2)C(=O)N(CCC(=O)O)C3=O)cc(OC)c1OC
→ i, -0.7%, 1e-09, i, -2.3%
[3] COc1cccc2[nH]c3c(N4CCC(C)CC4)ncnc3c12
→ i, 0.6%, 4.28e-08, i, -41.9%[inhibitor]
[4] COc1cccc(C2=NOC(C(=O)Nc3cc(OC)c(OC)c(OC)c3)C2)c1 (centres undefined)
→ i, 1.8%, 1.5e-09, i, ?
[5] CCN(C(=O)COc1cc(=O)n(C)c2ccccc12)c1cccc(Cl)c1
→ i, -0.6%, 1e-09, i, 0.0%[11.4 µM]
[6] COc1cc(OC)c2c(c1Cl)O[C@@]1(C2=O)[C@H](C)CC(=O)C[C@@H]1OC
→ i, -3.1%[25.7 µM], 1.76e-08, i, nt
[7] Cc1cc(NC(=O)CSc2nc3ccsc3c(=O)n2CCCCC(=O)O)no1
→ i, 3.2%, 3.16e-08, i, -9.0%
[8] COc1ccccc1-c1noc(CCC(=O)Nc2cc(C(F)(F)F)ccc2Cl)n1
→ i, 1.4%, 1.1e-09, i, ?
[9] O=C(NC1CCCCC1)C1CCN(S(=O)(=O)c2cccs2)CC1
→ i, 0.4%, 9.6e-09, i, -4.0%[11.4 µM]
[10] Cn1c(C(=O)NCCN2CCOCC2)cc2c(=O)n(C)c3ccccc3c21
→ nt, -0.4%, nt, nt, -1.2%
[11] CCc1nc(N)c(C#N)c(-c2ccco2)c1C
→ nt, 1.4%, nt, nt, 13.3%
[12] Cc1cccc(N2CCN(S(=O)(=O)c3ccc4c(c3)CCC(=O)N4)CC2C)c1 (centres undefined)
→ i, 0.9%, 1e-09, i, 7.9%
[13] Cn1c(C(=O)NCCN2CCc3ccccc3C2)cc2c(=O)[nH]c3ccccc3c21
→ i, 0.3%, 2.19e-08, i, 20.3%
[14] CCn1c(=O)cc(C(=O)OC)sc1=Nc1ccc(F)c(F)c1
→ nt, 1.5%, nt, nt, 5.6%
[15] CN(Cc1c(F)cccc1Cl)c1nnnn1-c1ccccc1
→ i, 2.0%, 6.7e-09, i, 26.1%
[16] CC1CCCN(C(=O)C2c3ccccc3C(=O)N3CCc4ccccc4C23)C1 (centres undefined)
→ i, -0.5%, 1e-09, i, ?
[17] CC(=O)c1ccc(OCC(=O)NC2CCS(=O)(=O)C2)cc1 (centres undefined)
→ i, 1.2%, 2.57e-08, i, 4.2%[11.4 µM]
[18] C=CCn1c(SCC(=O)NC(=O)NCc2ccco2)nc2sc(C)c(C)c2c1=O
→ i, 0.1%, 1.81e-08, i, ?
[19] Cc1ccc(-c2noc(CCC(=O)N3CCCC3)n2)cc1
→ i, -0.5%, 1.7e-09, i, 6.4%[11.4 µM]
[20] CCN1CCN(c2cc(C)c3cc(NC(=O)c4ccc5c(c4)OCO5)ccc3n2)CC1
→ nt, -0.7%, nt, nt, -5.6%
[21] CCCCCOC(=O)NCCOC(=O)Nc1ccc(C(=O)OCC)cc1
→ i, 0.6%, 2.38e-08, i, nt
[22] CC1=C(C(=O)OC(C)C)C(C)NC(=O)N1 (centres undefined)
→ i, 0.8%, 1e-09, i, -1.2%
[23] CCOCc1nnc(NC(=O)c2ccco2)s1
→ i, -0.6%, 1e-09, i, -4.0%
[24] CCOC(=O)c1c(C)n(C)c2ccc(O)c(CN3CCCCC3)c12
→ i, nt, 8.55e-08, i, nt
[25] CC(C)(C)c1ccc(-c2nnc(SCC(=O)O)n2N)cc1
→ i, -1.5%, 9.1e-09, i, -4.0%
[26] CC(C)Oc1ccc(C(CC(=O)O)NC(=O)CSc2ncn[nH]2)cc1 (centres undefined)
→ i, 0.4%, 1e-09, i, 0.5%
[27] O=C(CCn1c(=O)sc2ccccc21)NCCCn1ccnc1
→ i, -1.5%, 1.64e-08, i, ?
[28] Clc1ccc(CSC2=NCCCN2)cc1Cl
→ i, -0.8%, 1e-09, i, 5.5%
[29] Cc1c(C(=O)OCC(=O)N2c3ccccc3CC2C)oc2ccccc12 (centres undefined)
→ i, 0.2%, 1e-09, i, ?
[30] Cc1cc(=O)oc(C)c1C(=O)NCCN1CCOCC1
→ i, nt, 2.51e-08, i, nt
[31] COc1ccccc1NC(=O)Cn1c(CN2CCCCC2)nc2ccccc2c1=O
→ i, -0.5%, 4.6e-09, i, ?
[32] COc1ccccc1NC(=O)N1CCCC1C(=O)NCc1ccc(F)cc1 (centres undefined)
→ i, 2.1%, 4.3e-08, i, 2.6%
[33] COc1ccc(-c2cc(C(F)(F)F)nc(N3CCCCCC3)n2)cc1
→ i, 1.2%, 2.99e-08, i, -1.1%
[34] CCN(CC)C(=O)c1cn(CC)c(=O)c2cc(OC)c(OC)cc12
→ i, 0.6%, 2e-08, i, -0.2%
[35] Cc1ccc(N2CC(C(=O)OCc3ccccc3F)CC2=O)cc1 (centres undefined)
→ i, -0.5%, 1e-09, i, 3.1%
[36] COCCn1c(=O)c(CCc2ccccc2)nc2cnc(Oc3ccc(OC)cc3)nc21
→ i, 2.8%, 1e-09, i, ?
[37] c1ccc(-c2nnc(SCc3cn4ccsc4n3)o2)cc1
→ i, -2.8%, 1.95e-08, i, 3.4%
[38] O=C(Nc1cccnc1)c1ccccc1F
→ nt, -0.4%, nt, nt, 0.7%
[39] Cn1c(=O)c2c(nc(CN3CCc4ccccc4C3)n2Cc2cccc(Cl)c2)n(C)c1=O
→ nt, -4.5%, nt, nt, 19.4%
[40] O=c1c2cnn(-c3ccccc3Cl)c2ncn1Cc1cccnc1
→ i, 1.1%, 3.69e-08, i, -4.1%
[41] O=C(CC1(O)CCCCC1)OC1CCCC1
→ i, 5.3%[11.5 µM], 4.32e-08, i, 0.2%[11.4 µM]
[42] O=C(CC1Sc2ccccc2NC1=O)Nc1cccc(-c2nnc3n2CCCCC3)c1 (centres undefined)
→ i, -3.9%, 1e-09, i, 5.7%
[43] O=C(CNS(=O)(=O)c1ccccc1)NCc1ccccn1
→ i, -0.4%, 7e-09, i, -8.7%
[44] C=CCN1C(=O)C2C(C(=O)NC)C3C=CC2(O3)C1C(=O)NCc1ccc(OC)cc1 (centres undefined)
→ i, -1.1%, 2.42e-08, i, -1.3%
[45] CCOC1=NC(C(=O)O)c2ccccc2/C(=C(/C)Cl)N1 (centres undefined)
→ i, -1.0%, 4.15e-08, i, 0.9%
[46] CCc1ccc2c(CN3CCN(S(=O)(=O)c4ccc5c(c4)OCCO5)CC3)cc(=O)oc2c1
→ i, 3.4%, 1.38e-08, i, -1.2%
[47] Cc1ccc(NC2CC(=O)N(c3ccc(N4CCCCC4)cc3)C2=O)cc1 (centres undefined)
→ i, 0.9%, 1e-09, i, -11.7%
[48] Cc1cc(O)ccc1-c1cnc2ccccc2n1
→ i, nt, 8.2e-09, i, nt
[49] COc1ccc(CCNc2nnc(Sc3nnnn3-c3ccccc3)s2)cc1OC
→ i, 0.0%, 1.2e-09, i, 3.4%
[50] O=C(Nc1cccc(-n2cnnn2)c1)c1ccco1
→ i, 1.2%, 5.28e-08, i, 0.7%
[51] O=C(CN1C(=O)c2ccccc2S1(=O)=O)NCCC1=CCCCC1
→ i, -3.8%, 5.4e-09, i, -0.1%
[52] CCc1ccccc1S(=O)(=O)Cc1ccc(C(=O)N2CCN(c3ccccn3)CC2)o1
→ nt, 0.7%, nt, nt, ?
[53] Fc1cccc(CSc2nc3ccncc3[nH]2)c1
→ nt, 0.1%, nt, nt, 2.1%
[54] CO[C@@H]1/C=C\CC(=O)N[C@@H](C)C(=O)OC[C@@H](OC)[C@H](C)CCCC(=O)OC[C@H]1C
→ nt, -5.8%[11.5 µM], nt, nt, 2.6%[11.4 µM]
[55] Cc1ccc(C)c(OCC(O)CN2CCCCC2C)c1 (centres undefined)
→ i, -0.3%, 6.4e-09, i, ?
[56] CCCOc1ccc(C(CC(=O)O)NC(=O)c2ccc3c(c2)OCO3)cc1 (centres undefined)
→ i, 0.5%, 1.8e-09, i, 13.0%
[57] CCCCn1c(SCc2ncc(-c3ccccc3)o2)nc2cc(S(N)(=O)=O)ccc21
→ i, 5.6%, 1e-09, i, ?
[58] CCOC(=O)/C=C(\C)Nc1cc(C)nn1-c1ccccc1
→ nt, 0.1%, nt, nt, 9.8%
[59] COc1cccc(-c2cc(C(F)(F)F)nc(N3CCCCC3)n2)c1
→ i, 4.6%, 2.87e-08, i, ?
[60] COCCNC(=O)c1cc(-c2cccs2)on1
→ nt, -4.0%, nt, nt, -2.9%

Next results follow.
Results follow in this order: A488 fluor, AID923, A647 autofl, Resorufin autofl, TSHR ag
[61] CCOC(=O)N1CCN(C(=O)c2cc(-c3ccc(OCC)cc3)nc3ccccc23)CC1
→ i, -1.5%, 4.7e-09, i, 17.6%
[62] CC(=O)c1c(C)n(CC(=O)NCc2ccc3c(c2)OCO3)c2ccccc12
→ i, 0.2%, 1.85e-08, i, 21.0%
[63] CC(C)Cn1c(N)c(C(=O)COC(=O)c2ccc3c(c2)OCCO3)c(=O)n(C)c1=O
→ i, 0.5%, 2.8e-09, i, 6.4%
[64] CC(=O)Nc1ccc(S(=O)(=O)N2CCC(c3nc4ccc(C)cc4[nH]3)CC2)cc1
→ i, -0.6%, 2.4e-09, i, -2.7%
[65] COc1cccc(NC(=O)Cc2ccccc2)c1
→ nt, 0.7%, nt, nt, 1.0%[11.4 µM]
[66] O=C1C2C3C=CC(CO)(O3)C2C(=O)N1c1ccccc1-c1ccccc1 (centres undefined)
→ nt, -2.4%, nt, nt, 9.7%[11.4 µM]
[67] S=C(c1ccc2c(c1)OCO2)N1CCCC1
→ i, 1.7%, 2.82e-08, i, 1.6%
[68] CN(C(=O)CN1C(=O)c2ccccc2S1(=O)=O)c1ccccc1C(=O)O
→ i, -0.6%, 2.12e-08, i, nt
[69] O=C(NC(NC1CCS(=O)(=O)C1)C(=O)c1ccccc1)c1ccc(Cl)cc1 (centres undefined)
→ i, 1.8%, 1.06e-08, i, 1.7%
[70] N#CCCn1cc(/C=N/O)c(-c2ccc(-c3ccccc3)cc2)n1
→ nt, -0.2%, nt, nt, -8.2%
[71] CCn1c(SCC(=O)Nc2ccc(Cl)cc2)nnc1C1CC1
→ nt, -1.1%, nt, nt, -5.8%[11.4 µM]
[72] COc1cccc(C2NC(=O)c3ccccc3O2)c1OC (centres undefined)
→ i, 0.8%, 2.84e-08, i, 3.8%
[73] CCn1c(SCC(=O)Nc2nc(-c3ccccc3)cs2)nnc1-c1ccccc1O
→ i, -1.5%, 1.43e-08, i, 27.5%
[74] COCCn1nnnc1C(C(C)C)N(Cc1cccnc1)Cc1ccccc1Cl (centres undefined)
→ i, 3.3%, 1.25e-08, i, ?
[75] CCN(C(=O)c1ccco1)c1nc(CC(=O)Nc2ccc(Cl)cc2)cs1
→ i, 2.3%, 1e-09, i, ?

A section from the list above:
Results follow in this order: A488 fluor, AID923, A647 autofl, Resorufin autofl, TSHR ag
[68] CN(C(=O)CN1C(=O)c2ccccc2S1(=O)=O)c1ccccc1C(=O)O
→ i, -0.6%, 2.12e-08, i, nt
[69] O=C(NC(NC1CCS(=O)(=O)C1)C(=O)c1ccccc1)c1ccc(Cl)cc1 (centres undefined)
→ i, 1.8%, 1.06e-08, i, 1.7%
[70] N#CCCn1cc(/C=N/O)c(-c2ccc(-c3ccccc3)cc2)n1
→ nt, -0.2%, nt, nt, -8.2%
[71] CCn1c(SCC(=O)Nc2ccc(Cl)cc2)nnc1C1CC1
→ nt, -1.1%, nt, nt, -5.8%[11.4 µM]
[72] COc1cccc(C2NC(=O)c3ccccc3O2)c1OC (centres undefined)
→ i, 0.8%, 2.84e-08, i, 3.8%
